Mtb bLac sens: beta-lactam sensitization of Mtb H37Rv | M. tuberculosis H37Rv growth with meropenem, percent inhibition; hits of this screen are not shown here | inhibition, % at 25 µM | 330,000 compounds, 0.27% hits;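 active = about 74% or more and at least 40 points above the plate without the antibiotic, then above 30% in a dose series; inconclusive = first-round hits that could not be retested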;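 note: growth measured after seven days incubation then overnight dye step; 0% = bacteria only wells and 100% = bacteria with antibiotic; twin plates without the antibiotic show which effects depend on it; some results filed as inactive read as strong as hits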
Mtb growth: M. tuberculosis H37Rv growth inhibitors, H37Rv strain (AID 1626); M. tuberculosis H37Rv growth inhibition; higher % means a stronger effect; inhibition, % at 10 µM, or IC50 in µM where a hit was titrated; 220,000 compounds, 0.95% hits;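 active = confirmed in a dose series; inconclusive = inhibition above 80% but not taken into the dose series; inactive = below 80% or under 30% at every dose of the series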;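 note: bacteria incubated seven days before Alamar blue readout; 0% = bacteria only wells and 100% = bacteria with antibiotic wells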
Arbovirus inh: arbovirus infection inhibition | arbovirus infection cell-based antiviral screen | inhibition, % at 10 µM | 200,000 compounds, 0.37% hits | AID 1251;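 active = inhibition from about 30%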;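 note: bluetongue infection of BSR cells; cell survival read as ATP light after 72 h; 0% = infected wells without compound and 100% = uninfected wells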
YopH inh: blocks Yersinia enterocolitica YopH tyrosine phosphatase; fluorescence Ex485/Em525; inhibition, %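 (about 10 µM by stock and volumes)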; 140,000 compounds, 0.16% hits; AID 898;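 active = inhibition of 50% or more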;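 note: controls were vehicle for no effect and minimum signal wells for full effect; inactives centre near -20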
RecA splice inh: blocks M. tuberculosis RecA intein splicing | inhibition, %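 (about 9 µM by stock and volumes)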 | AID 2221 | cell-free RecA intein splicing, fluorescence | P9WHJ3 | 290,000 compounds, 0.75% hits; in the data active = inhibition above about 30%; inconclusive = no clear call, values can overlap the other calls;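 note: 0% = vehicle wells and 100% = reference inhibitor control wells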
Target sequence (P9WHJ3 whole entry, looked up, canonical isoform): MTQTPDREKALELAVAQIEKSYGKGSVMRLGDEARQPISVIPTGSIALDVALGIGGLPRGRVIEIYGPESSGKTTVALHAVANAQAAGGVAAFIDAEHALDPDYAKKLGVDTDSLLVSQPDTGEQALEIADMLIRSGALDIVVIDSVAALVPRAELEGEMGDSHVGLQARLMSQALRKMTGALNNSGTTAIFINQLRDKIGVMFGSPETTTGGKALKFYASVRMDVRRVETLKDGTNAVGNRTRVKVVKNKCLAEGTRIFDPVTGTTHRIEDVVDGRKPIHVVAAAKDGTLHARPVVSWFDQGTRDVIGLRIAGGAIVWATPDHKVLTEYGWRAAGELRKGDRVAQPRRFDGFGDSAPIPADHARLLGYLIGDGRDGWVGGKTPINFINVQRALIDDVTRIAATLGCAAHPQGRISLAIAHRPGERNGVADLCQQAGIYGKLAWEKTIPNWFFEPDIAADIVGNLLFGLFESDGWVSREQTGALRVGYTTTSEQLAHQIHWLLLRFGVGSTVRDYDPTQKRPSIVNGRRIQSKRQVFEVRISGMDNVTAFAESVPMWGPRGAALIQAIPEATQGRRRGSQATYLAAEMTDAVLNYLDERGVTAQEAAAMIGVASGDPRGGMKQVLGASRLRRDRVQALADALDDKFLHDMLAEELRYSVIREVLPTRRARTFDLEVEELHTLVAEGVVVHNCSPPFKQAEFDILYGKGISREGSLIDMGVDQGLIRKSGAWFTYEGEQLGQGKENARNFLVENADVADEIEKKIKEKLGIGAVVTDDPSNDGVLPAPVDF
Arbovirus inh repeat: second read-out of Arbovirus inh, no call of its own (marks repeat the call); inhibition, %; measured here: 10K subset replicate screen; many hits read low in the repeat;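 first of two repeat runs on a subset; 0% = infected and 100% = uninfected wells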
* marks the source's active call; other numbers are inactive results; u = inconclusive; x = no result given.

Start of the data: the first 7 entries, to show the layout:
SMILES | Mtb bLac sens | Mtb growth | Arbovirus inh | YopH inh | RecA splice inh | others
COc1ccc(N(CC(=O)Nc2cccc(OC)c2)S(=O)(=O)c2c(C)nn(C)c2C)cc1 | 7 | -5% | 6 | 5 | x
O=C1CCCN1c1ccc(S(=O)(=O)N2CCN(c3ccccn3)CC2)cc1 | -6 | 0% | 3 | -24 | -2.4
COC(=O)CCC(NC(=O)OCc1ccccc1)C(=O)NC(CC(C)C)C(=O)OC (centres undefined) | u | -4% | 7 | -30 | -4.7
COc1ccc(-c2cn3cccnc3n2)cc1NC(=O)C(C)C | 0 | x | x | x | -4.3
COc1ccccc1C(=O)Nc1sc2c(c1C#N)CCC2 | 2 | x | x | x | -0.9
O=C(c1ccc2c3c(cccc13)CC2)C1CCCN(C(=O)c2cccnc2)C1 (centres undefined) | 3 | -5% | 10 | x | 1.2
CCOP(=O)(OCC)c1nc(/C=C/c2ccccc2)oc1NCc1ccccc1 | -6 | 0% | -7 | -23 | -3.9

The list itself (from the top)
SMILES | Mtb bLac sens | Mtb growth | Arbovirus inh | YopH inh | RecA splice inh | others
COc1ccc(N(CC(=O)Nc2cccc(OC)c2)S(=O)(=O)c2c(C)nn(C)c2C)cc1 | 7 | -5% | 6 | 5 | x
O=C1CCCN1c1ccc(S(=O)(=O)N2CCN(c3ccccn3)CC2)cc1 | -6 | 0% | 3 | -24 | -2.4
COC(=O)CCC(NC(=O)OCc1ccccc1)C(=O)NC(CC(C)C)C(=O)OC (centres undefined) | u | -4% | 7 | -30 | -4.7
COc1ccc(-c2cn3cccnc3n2)cc1NC(=O)C(C)C | 0 | x | x | x | -4.3
COc1ccccc1C(=O)Nc1sc2c(c1C#N)CCC2 | 2 | x | x | x | -0.9
O=C(c1ccc2c3c(cccc13)CC2)C1CCCN(C(=O)c2cccnc2)C1 (centres undefined) | 3 | -5% | 10 | x | 1.2
CCOP(=O)(OCC)c1nc(/C=C/c2ccccc2)oc1NCc1ccccc1 | -6 | 0% | -7 | -23 | -3.9
Cc1nnc(Nc2ccc(Cl)c(C(F)(F)F)c2)[nH]c1=O | -4 | -2% | -3 | x | x
CC[N+](CC)(CCO)CCCN1C(=O)C2CC=C(Cl)CC2C1=O (centres undefined) | -6 | 0% | 3 | -1 | 0.1
CC(=O)c1c(C)[nH]c(C(=O)CSc2nc3ccc(C)cc3[nH]2)c1C | 20 | 0% | 10 | -11 | 8.0
COc1ccc(/C=C(/C(=O)NCc2ccccc2)c2ccccc2)cc1 | -1 | 9% | -25 | -21 | 3.1
CC1CN(S(=O)(=O)c2ccc(C(=O)Nc3ccc(S(=O)(=O)Nc4nccs4)cc3)cc2)CC(C)O1 (centres undefined) | 6 | 4% | 2 | -49 | -2.3
O=C(OCC(=O)C12CC3CC(CC(C3)C1)C2)c1cnccn1 | 2 | x | x | x | -4.0
O=C(O)C1Sc2[nH]c(=O)sc2C2c3cc(Cl)ccc3OC(=O)C12 (centres undefined) | 6 | -11% | 6 | -28 | -0.4
CCOC(=O)C(=O)Nc1sc(C(=O)N2CCOCC2)c(C)c1C#N | 2 | -2% | 0 | x | -2.7

Entries from the list above that contain a Cl atom, in the order listed:
SMILES | Mtb bLac sens | Mtb growth | Arbovirus inh | YopH inh | RecA splice inh | others
Cc1nnc(Nc2ccc(Cl)c(C(F)(F)F)c2)[nH]c1=O | -4 | -2% | -3 | x | x
CC[N+](CC)(CCO)CCCN1C(=O)C2CC=C(Cl)CC2C1=O (centres undefined) | -6 | 0% | 3 | -1 | 0.1
O=C(O)C1Sc2[nH]c(=O)sc2C2c3cc(Cl)ccc3OC(=O)C12 (centres undefined) | 6 | -11% | 6 | -28 | -0.4

Entries above that have a cyano group:
SMILES | Mtb bLac sens | Mtb growth | Arbovirus inh | YopH inh | RecA splice inh | others
COc1ccccc1C(=O)Nc1sc2c(c1C#N)CCC2 | 2 | x | x | x | -0.9
CCOC(=O)C(=O)Nc1sc(C(=O)N2CCOCC2)c(C)c1C#N | 2 | -2% | 0 | x | -2.7

Continuation.
SMILES | Mtb bLac sens | Mtb growth | Arbovirus inh | YopH inh | RecA splice inh | others
Cc1cccc(NC(=O)c2cc(-c3ccco3)nc3ccccc23)n1 | 3 | -6% | 3 | -18 | -1.6
CN(C)CCCNC(=O)COc1ccc(Br)cc1Cl | -2 | -5% | 5 | -24 | -0.8
O=C(O)C1CCCCC1C(=O)Nc1ccccc1Nc1ccccc1 (centres undefined) | 6 | >100µM* | -12 | -49 | 0.1
C[C@H]1C=C(C(=O)N2CCOCC2)O[C@@H](OCc2ccc(CO)cc2)C1 | -3 | x | -1 | x | -1.3
CCc1ccc(CNC(=O)Cn2nc(-c3ccc(C)cc3)ccc2=O)cc1 | 1 | 5% | 6 | x | -0.4
O=C(N/C(=C/c1cccnc1)C(=O)N1CCOCC1)c1ccccc1F | 0 | -11% | x | x | 0.3
Cn1ncc2c(Nc3ccc4ccccc4c3)ncnc21 | 1 | 2% | 4 | -47 | -0.6
CCOc1ccc(C(=O)NC(=S)Nc2ccc(NC(=O)c3ccco3)c(C)c2)cc1[N+](=O)[O-] | -2 | -2% | -4 | -8 | 3.4
CC(=O)Nc1ccc(S(=O)(=O)NCCC(=O)N2CCCCC2)cc1 | -8 | x | x | x | -2.0
O=C(Cc1cccs1)NCc1ccc2c(c1)OCO2 | -7 | 2% | -2 | -7 | -0.4
CCOC(=O)C1CCCCC12C(C#N)=C(N)Oc1n[nH]c(C)c12 (centres undefined) | 1 | 1% | -2 | 2 | 23
C[C@H]1[C@H](C)CC[C@]2(C)CC[C@]3(C)C(=CC[C@@H]4[C@@]5(C)CC[C@@H](O)[C@](C)(C(=O)O)[C@@H]5CC[C@]43C)[C@H]12 | -1 | -6% | x | x | 20
C=CCN(C(=O)CCC(=O)Nc1cc(C)on1)C(C(=O)NC(C)(C)C)c1cccc(OC)c1OC (centres undefined) | 4 | -9% | 0 | -35 | -3.3
OC(CN1CCN(c2ccccc2)CC1)Cn1c2ccccc2c2ccccc21 (centres undefined) | -5 | 12% | 14 | -14 | 0.5
CCOC(=O)C1=C(C)NC(=O)NC1c1ccc(OCC(=O)OC)c(OC)c1 (centres undefined) | -8 | 4% | -1 | -20 | 0.7
S=C(NCc1ccc2c(c1)OCO2)Nc1ccc2nsnc2c1 | -2 | -15% | -23 | x | 7.1
Cc1cc(/C=C2\SC(=O)N(C)C2=O)c(C)n1-c1ccc(O)cc1 | 15 | x | x | x | -2.1
CNC(=O)c1nn(-c2ccc(C)cc2)ccc1=O | -12 | 5% | -1 | -41 | 2.4
OCCC1CN(Cc2cccc3c2OCO3)CCN1C1CCCCC1 (centres undefined) | -3 | -2% | -4 | x | -1.6
CC(C)NC(=O)c1ccc(-c2ccccc2C(F)(F)F)o1 | 6 | 1% | 0 | -10 | 1.9
C/C(=N\NC(=O)NC1CCCCC1)C1CCCCC1 | -4 | -3% | 2 | -28 | 1.0
Cc1ccc(-c2cc3nc(C)cc(C)n3n2)cc1 | -8 | -3% | -4 | x | 4.7
CCCCCCC/C(C)=N/NC(=O)CC(=O)NCCc1ccccc1 | 1 | -2% | 2 | -9 | 1.0
Cc1cc(C(=O)CNCc2ccco2)c(C)n1-c1ccc(F)cc1 | 7 | 6% | -1 | -6 | 0.9
COc1ccc(S(=O)(=O)N(C)CC(=O)N2CCN(Cc3ccccc3)CC2)cc1C | -3 | 2% | -1 | -8 | -8.8
NC(=O)c1ccc(NC(=O)CS(=O)(=O)c2cn(CC(=O)N3CCCCC3)c3ccccc23)cc1 | -1 | x | x | x | -4.2
Cc1ccc(/C=N/Nc2nncc(-c3ccccc3)n2)o1 | -7 | 4% | -7 | x | -5.4
COCc1nc2ccccc2n1Cc1ccc(Br)cc1 | -3 | 25% | -1 | 15 | 0.9
O=C(CCS(=O)(=O)c1ccccc1)Nc1ccccn1 | -1 | x | x | x | -7.0
CCS(=O)(=O)c1ccc(C(=O)Nc2ccccc2OC)c(Cl)c1Cl | 2 | 3% | 7 | x | -1.4
C=CC[C@]12C[C@@H](OC)C(=O)C=C1O[C@@H](c1ccc(OC)c(OC)c1)[C@H]2C | 1 | -14% | x | x | 1.6
COc1ccc(C(=O)CCS(=O)(=O)c2ccc(F)cc2)cc1OC | 1 | x | x | x | 1.0
COCCCNc1nnc(Cc2ccc(Cl)cc2)c(=O)[nH]1 | -3 | x | x | x | -0.8
COc1ccc(-c2noc(CN(C(=O)c3ccc4c(c3)OCO4)C(C)C)n2)cc1OC | -10 | x | x | x | 4.5
COc1ccc(CC(=O)Nc2sc3c(c2C(N)=O)CCCC3)cc1 | 3 | x | x | x | -0.7
CCN(CCCNC(=O)CCc1nc(-c2ccc(OC)cc2)no1)c1cccc(C)c1 | 8 | -1% | -35 | 2 | 5.0
CC(C)c1ccc(CN(C(=O)c2cccs2)C2CCS(=O)(=O)C2)cc1 (centres undefined) | 2 | x | x | x | 0.0
Cc1ccc(CCNC(=O)C2CCC(=O)N(Cc3cccc(F)c3)C2)cc1 (centres undefined) | u | x | x | x | 1.8
O=C(CSc1ccc(Cl)cc1)Nc1cc(-c2nc3ncccc3o2)ccc1Cl | 6 | -9% | -5 | -13 | 1.2
COc1cc(/C=N/O)ccc1OCc1ccc(C(=O)O)cc1 | -3 | -16% | -6 | -57 | -22
COCCN1Cc2cccc(C(=O)Nc3cccc(OC)c3)c2C1=O | -12 | -6% | 4 | 12 | -2.2
CCOC(=O)c1nn(-c2ccccc2)c2nnc(Cc3ccc(Cl)cc3)c(=O)n12 | -3 | 6% | 4 | -10 | 0.6
CCN=C1S/C(=C\c2cn(C(C)=O)nc2-c2ccccc2)C(=O)N1CC | 9 | 10% | -14 | -139 | 2.3
Cc1cc(C)c2cc(C(=O)N3CCc4ccccc4C3)[nH]c2c1 | 16 | 10% | x | x | 0.1
Cc1ccc(-c2noc(CCC(=O)Nc3ccc(C)cn3)n2)cc1 | 85 | 26% | 2 | 27 | -1.8
Cc1ccc(S(=O)(=O)Nc2cc(C(=O)NCCN(C)C)ccc2N2CCCCC2)cc1 | -1 | 0% | -10 | -28 | x
COCc1cc(SC2CCCCC2)nc(C)n1 | -3 | 8% | 1 | x | -3.0
COc1cc(C(=O)NCc2nnc(SCC(=O)Nc3ccc4c(c3)OCO4)o2)cc(OC)c1OC | 2 | 4% | 8 | x | 0.2
COc1ccc(CN2CCN(Cc3ccco3)CC2)c(OC)c1 | -3 | x | x | x | -0.7
COc1ccccc1/C=C/C1(C(=O)NC2CCCC2)CC(=O)N1c1ccc(C)cc1 (centres undefined) | -7 | -3% | -4 | 6 | 34*
CC1CCN(C(=O)CSCC(=O)Nc2nc(-c3cccs3)cs2)CC1 | -12 | -4% | 8 | -5 | 2.5 | Arbovirus inh repeat=-1
Cc1nn(CCC(=O)NNC(=S)Nc2ccc(Cl)cc2)c(C)c1[N+](=O)[O-] | -7 | -2% | -1 | 1 | 0.2
COc1ccc(-c2c[nH]c(=O)[nH]c2=O)cc1OC | -4 | -7% | 6 | x | -6.9
CCN(CC)c1ccc2c(Nc3ccccc3)c(C=O)c(=O)oc2c1 | -1 | -3% | -6 | x | -1.5
OC(COc1ccc(CNCCc2ccccc2F)cc1)CN1CCCCC1 (centres undefined) | 1 | 4% | -21 | x | x
O=C1c2ccccc2C(=O)N1CCn1ccnc1 | 3 | x | x | x | 1.6
CN1CCN(c2cnn(-c3ccccc3)c(=O)c2Br)CC1 | -4 | 3% | 1 | x | 0.7
Cc1ccccc1C(=O)c1c[nH]c(C(=O)NCc2cccs2)c1 | 6 | 6% | -7 | -50 | -1.5
CCn1nc(NS(=O)(=O)c2ccc([N+](=O)[O-])cc2)c2cc3ccccc3nc21 | -9 | x | x | x | 2.1
COc1cccc(-c2csc(N3CCN(CC(=O)NNC(=O)c4ccc(Br)cc4)CC3)n2)c1 | 6 | 5% | -1 | -28 | 1.0
Continuation:
SMILES | Mtb bLac sens | Mtb growth | Arbovirus inh | YopH inh | RecA splice inh | others
COc1ccccc1NC(=O)CSc1nnc(COc2ccc(Cl)cc2)o1 | 95 | x | x | x | -1.8
CC(C)CN(C(=O)COC(=O)c1cncc(Br)c1)c1c(N)n(Cc2ccccc2)c(=O)[nH]c1=O | 6 | x | x | x | -5.4
CC(=O)Nc1cccc(NC(=O)C2CCCN2C(=O)Nc2ccc(Cl)cc2)c1 (centres undefined) | -3 | -10% | 1 | -28 | 3.1
COc1ccc(N2CCN(C(=O)c3ccc(OCc4c(C)noc4C)c(OC)c3)CC2)cc1 | -6 | 6% | 5 | -63 | -6.0
O=C(CN(C(=O)Cn1nnc(-c2ccc(F)cc2)n1)c1cccc(F)c1)NC1CCCC1 | 4 | x | x | x | 0.0
CN1CCc2nc3sc(C(=O)NC(C)(C)C)c(N)c3cc2C1 | 50 | -11% | 9 | -2 | 3.3

Screens: PubChem, several laboratories

This is a subset; the hit share may differ from the screen's.
